# Assay outcomes as filed in PubChem.
# hNpr1 antagonist – blocks ANP-stimulated signaling of human Npr1 receptor | P16066 | HEK293 hNpr1 GloSensor cGMP, ANP-stimulated luminescence | Potency, µM (top dose mostly 46.3 µM), for the others: at the top dose activity change, negative = inhibition, hits mostly inhibitors | hit rate 1.6% among 76,000 | AID 1347048; active = well fitted inhibition curve with a large enough effect; inconclusive = small, poorly fitted or top-dose-only effect; inactive = no such curve, though single readings can be large or run the other way;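 also: nearly all actives have a fitted effect of over 60% in size; nearly all hits also lower the signal before the agonist is added; a reference antagonist and vehicle were the controls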
# Target sequence (P16066 whole entry, looked up): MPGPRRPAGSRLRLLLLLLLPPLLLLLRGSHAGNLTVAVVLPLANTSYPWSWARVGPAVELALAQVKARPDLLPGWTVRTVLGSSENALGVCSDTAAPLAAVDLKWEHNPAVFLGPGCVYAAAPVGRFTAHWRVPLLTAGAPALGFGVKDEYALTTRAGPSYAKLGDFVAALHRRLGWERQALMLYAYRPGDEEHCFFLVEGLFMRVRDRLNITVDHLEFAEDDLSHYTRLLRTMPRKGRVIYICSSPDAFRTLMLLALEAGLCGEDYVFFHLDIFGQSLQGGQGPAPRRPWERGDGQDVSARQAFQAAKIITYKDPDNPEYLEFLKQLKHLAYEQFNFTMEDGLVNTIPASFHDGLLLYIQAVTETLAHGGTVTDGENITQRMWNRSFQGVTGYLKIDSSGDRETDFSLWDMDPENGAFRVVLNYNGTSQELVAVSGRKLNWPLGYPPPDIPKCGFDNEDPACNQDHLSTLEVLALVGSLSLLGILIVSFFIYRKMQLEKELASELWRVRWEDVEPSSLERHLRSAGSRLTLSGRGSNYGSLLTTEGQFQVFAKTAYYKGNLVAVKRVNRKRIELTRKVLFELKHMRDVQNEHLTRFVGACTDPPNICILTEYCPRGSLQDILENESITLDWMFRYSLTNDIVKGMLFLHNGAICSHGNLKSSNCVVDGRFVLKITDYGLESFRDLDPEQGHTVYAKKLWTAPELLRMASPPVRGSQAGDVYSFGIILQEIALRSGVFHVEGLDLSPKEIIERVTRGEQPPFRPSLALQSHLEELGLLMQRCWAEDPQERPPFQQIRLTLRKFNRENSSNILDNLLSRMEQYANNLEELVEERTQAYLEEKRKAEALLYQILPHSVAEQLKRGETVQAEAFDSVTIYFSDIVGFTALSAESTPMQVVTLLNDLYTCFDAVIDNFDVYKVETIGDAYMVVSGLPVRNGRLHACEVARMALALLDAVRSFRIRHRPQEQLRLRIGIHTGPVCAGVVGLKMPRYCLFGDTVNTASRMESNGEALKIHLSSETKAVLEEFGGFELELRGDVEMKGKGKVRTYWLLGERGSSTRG
#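 Compound pre-incubated 30 min at room temperature on GloSensor-loaded HEK293 cells stably carrying hNpr1 and the pGS-40F cGMP biosensor. Stimulation uses hNppA at 0.1 nM final; luminescence is taken at baseline and 20 min post-agonist.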
# Active calls of the source: *; ? = inconclusive; [ ] = dose if it differs, or a comment. % is scaled to controls: 0 for no effect and ±100 for the full control effect; potency is read from the fitted curve at half-maximal effect. The list is partial, so the mix of outcomes need not match the whole.
SMILES,hNpr1 antagonist
COCCN1CCCCCC(O)c2cc(C(=O)NCCN3CCOCC3)ccc21 (stereo unspecified),3.3%
COCC(=O)N1CCN(C(=O)NC(C)C)C[C@H]1C(=O)N[C@H](Cc1cccnc1)C(=O)OC,0.0%
COc1ccc(CN2C[C@@H](CO)[C@H](c3ccccn3)C2)cc1C,-24.1%
O=C(N[C@@H]1CN(Cc2ccccc2)C[C@H]1CO)c1cccnc1,7.1%
CNC(=O)N1CCC(C2CCN(C(=O)c3ocnc3C)C2)CC1 (stereo unspecified),7.0%
COc1ccc(-c2nc(-c3nnn4c3COC(c3ccc(Cl)cc3)C4)no2)cc1OC (stereo unspecified),6.4%
O=C(NCc1ccc(F)cc1)c1nc(-c2ccccc2)c2ccccn12,-0.9%
CS(=O)(=O)Cc1ccc(-c2cccc(OCc3ccccc3F)c2)nc1,2.7%
COc1cccc(C(=O)N2CCC(C(=O)N3CC[C@@](C)(O)[C@@H](O)C3)CC2)c1,1.5%
COCCc1noc(-c2nc(-c3ccc(OC)cc3)no2)n1,-17.2%
CC(C)Oc1ccc(C(=O)NC2CCN(c3cnn(C)c(=O)c3)CC2)cc1,0.1%
COc1ccc(NC(=O)CCC2CCCN(C(=O)c3ncoc3C)C2)c(C)c1 (stereo unspecified),-2.9%
O=C(c1ccco1)N1CCC(OC2CCN(Cc3cccnc3)CC2)CC1,12.7%
CCN(CC1CCN(CCc2ccccc2C)CC1)C(=O)c1cc(C)nc(C)n1,13.3%
CCC[C@H]1CN(S(=O)(=O)c2ccc(CC)s2)C[C@@H]1N,-7.2%
COc1ccc(-c2ccc3c(c2)C(=O)N2CCN(C(=O)c4cnccn4)C[C@H]2C(=O)N3)cc1,1.5%
COc1ccccc1OC1(C(=O)O)CCN(c2cc(C)nc(N)n2)CC1,-1.6%
CC1(C)[C@H]2CC[C@@H](CNC(=O)N3CCCC3)[C@@H]1C2,-6.6%[70.6 µM]
COc1ccc(C(=O)NC2CCN(c3cnn(CC4CC4)c(=O)c3)CC2)cc1OC,-15.9%
CN1C(=O)C(CC(=O)N2CCCNCC2)(Cc2ccccc2)c2ccccc21 (stereo unspecified),1.1%
COc1cccc(CN2CCN3C(=O)N(C4CCOCC4)C[C@H]3C2)c1,-4.9%[70.6 µM]
O=C(NCc1ccc(F)c(Cl)c1)c1cccc2c1CCN2C(=O)C1CC1,-21.4%
O=C(O)[C@@H]1CN(Cc2cnc(N3CCOCC3)nc2)C[C@H]1c1ccccc1,1.1%
O=C(NCc1ccco1)[C@H]1CN(Cc2ccccc2)C[C@H]1C(=O)O,-20.6%
COCCNC(=O)C[C@@H]1C[C@H]2O[C@H](CNC(C)C)[C@@H](O)[C@H]2O1,4.2%[70.6 µM]
# Remaining list, next part:
SMILES,hNpr1 antagonist
CCCC1(CO)CCCN(CC(=O)NC(C)(C)CC)C1 (stereo unspecified),0.4%
Cc1ccccc1N1Cc2c(NCC(C)(C)C)ncnc2N(C)CC1=O,5.4%
CCn1ncc(N2CCC(NC(=O)c3ccccc3OC)CC2)cc1=O,-14.3%
O=C(Cn1cc(C2CCCNC2)nn1)N1CCCC1 (stereo unspecified),-1.4%
O=C(NCc1nnc2c(-c3nc(C4CC4)no3)cccn12)c1ccccc1Cl,1.6%
Cc1ccccc1C(=O)N1CC(c2nc(CCc3ccccc3)no2)C1,-18.2%
Cc1nc([C@@H]2CN(C(=O)CCc3c[nH]c4ccccc34)C[C@H]2C(N)=O)n[nH]1,4.0%
CC(=O)N1CCc2c(nc(-c3ccccn3)nc2N(C)CCCN(C)C)C1,-0.1%
COc1cccc(S(=O)(=O)N2CCCC(c3nc(CCOCC4CC4)no3)C2)c1 (stereo unspecified),-14.6%
Cc1ccc(C2Cn3nnc(C(=O)NC4CCCCCC4)c3CO2)cc1 (stereo unspecified),-25.4%
NC1CCc2nn(CC(=O)N(Cc3ccccc3)Cc3ccco3)c(=O)n2CC1 (stereo unspecified),1.9%
COc1ccc(F)c(CN2CCCN3CCC[C@H]3C2)c1Cl,-5.6%
Cc1cc(COc2ccccc2)oc1C(=O)N1CC[C@@](C)(O)[C@@H](O)C1,0.0%
O=C1Nc2ccccc2OCC12CCN(Cc1ccccn1)CC2,0.0%[70.6 µM]
COC(=O)c1ccc(CN2CCC(n3nccc3NC(=O)Cc3ccccc3)CC2)cc1,2.3%
COc1cccc(CNC(=O)CN2CCCc3nc(C4CC4)ncc3C2=O)c1OC,6.0%
CCC(C)NC(=O)C(NC(=O)c1ccc(C)cc1)C1CCN(C(=O)CC(C)(C)C)CC1 (stereo unspecified),-4.1%
CNC(=O)N1CCCC(Cc2ncc(C)n2C(C)C)C1 (stereo unspecified),4.6%
CC(C)(C)c1cc(Cn2cc(C3CCCNC3)nn2)[nH]n1 (stereo unspecified),0.0%
COc1ccc(Cl)cc1NC(=O)CCC1CCCN(Cc2ccc3c(c2)OCCO3)C1 (stereo unspecified),-3.7%
O=S(=O)(c1cccc2ccccc12)N1CCCC(CO)(Cc2cccc(Cl)c2)C1 (stereo unspecified),3.4%
N#Cc1ccc(C(=O)Nc2ccc3c(N4CCCCC4)ncnc3c2)cc1,2.3%
Cc1oc2c(c1C(=O)N1CCN(c3ccccc3)CC1)CN(Cc1ccccc1)CC2,-15.0%
O=C(NCCCN1CCCC1=O)c1c(OCC2CC2)cc(=O)n2c1CCOCC2,6.1%
CN(C(=O)c1cc2ccccc2n1C)C1CCCN(C2Cc3ccccc3C2)C1 (stereo unspecified),1.8%

# A few values from the results shown.
# Entry for `CCC(C)NC(=O)C(NC(=O)c1ccc(C)cc1)C1CCN(C(=O)CC(C)(C)C)CC1` (stereo unspecified) in hNpr1 antagonist: -4.1%
# Entry for `COc1ccc(Cl)cc1NC(=O)CCC1CCCN(Cc2ccc3c(c2)OCCO3)C1` (stereo unspecified) in hNpr1 antagonist: -3.7%

# (more compounds)
SMILES,hNpr1 antagonist
COc1cccc(OCC(=O)c2ccc3c(c2)N(C(C)C(=O)NCCc2ccccc2)C(=O)CO3)c1 (stereo unspecified),-14.5%
COc1ccc(NC(=O)Cn2ccn3nc4c(c3c2=O)CCCC4)cc1OC,-0.8%
O=C(c1noc(-c2ccc(F)cc2)n1)N1CCN(c2ccccc2Cl)CC1,-3.2%
CC(C)C[C@H](NC(=O)Cn1nc2c(cc1=O)CCCC2)C(=O)O,-0.4%
O=C(c1csnn1)N1CCc2onc(-c3cccc(F)c3)c2C1,5.9%
CN1CCN(c2cc(-c3cncc(N)c3)nc(N)n2)CC1,1.3%
CCN(CC)Cc1cnc2c(C(=O)N3CCCC3c3ccccn3)cnn2c1 (stereo unspecified),2.5%
Cn1ccnc1CN1C(=O)CO[C@H](c2ccc(NC(=O)c3cc(F)cc(F)c3)cc2)[C@H]1CO,4.6%
O=C(NCCc1ccccc1)C1CCN(C(=O)c2ncn3c2COC(c2ccc(Cl)cc2)C3)CC1 (stereo unspecified),-1.7%
CC(C)(C)c1cc(C[C@H]2CNCC[C@H]2CC(=O)Nc2nccs2)no1,4.6%[70.6 µM]
c1cn(-c2ccc(N3CCCCCC3)nc2)c(-c2cc3n(n2)CCCNC3)n1,0.9%
Cc1ccc(C(=O)N2CCC(N3C(=O)CCC3C(=O)NCc3cccnc3)CC2)cc1F (stereo unspecified),-2.1%
O=C(Cn1nc2c(cc1=O)CCCCC2)Nc1nccs1,1.9%
COc1ccc(CC(=O)NC2CCN(c3nc4ncccc4o3)CC2)cc1,17.0%
CNc1cc(C2CC(NS(=O)(=O)c3cc(C)sc3C)C2)nc(N)n1 (stereo unspecified),-18.0%
COc1ccccc1CNC(=O)c1c(OC)cc(=O)n2c1CCCC2,2.0%
CCN1CCN(C(=O)C2(CCO)CCN(Cc3ccccc3)C2)CC1 (stereo unspecified),3.9%
COCC1(C(=O)N2CCN(C)C3(CCC(=O)N(C)CC3)C2)CCC1 (stereo unspecified),0.4%
CNC(=O)C1(N2CCC[C@H]2C(=O)NCc2ccccn2)CCCCC1,-7.2%[70.6 µM]
COCc1nncn1C1CCN(C(=O)c2ccc(F)cc2)CC1,-7.5%
C[C@@H](NC(=O)C[C@@H]1c2nc(-c3cccnc3)sc2C[C@@H]2[C@](C)(CO)[C@H](O)CC[C@]21C)c1ccccc1,-4.3%
CCc1cc(=O)n(CC(=O)Nc2cccc(Br)c2)c(N2CCOCC2)n1,-23.6%
C[C@@H](NC(=O)c1ccc(F)cc1)c1onc(-c2ccccc2)c1C(=O)O,2.8%[70.6 µM]
CC(C)CN1CCN(C2CCOC3(CCN(C(=O)c4ccc5[nH]ccc5c4)CC3)C2)CC1 (stereo unspecified),12.5%
O=C(NCCc1ccccc1)N1CCC(c2noc(-c3ccccn3)n2)C1 (stereo unspecified),1.0%

# Three compounds already listed, arranged by their value in hNpr1 antagonist, high to low:
SMILES,hNpr1 antagonist
COc1ccccc1CNC(=O)c1c(OC)cc(=O)n2c1CCCC2,2.0%
C[C@@H](NC(=O)C[C@@H]1c2nc(-c3cccnc3)sc2C[C@@H]2[C@](C)(CO)[C@H](O)CC[C@]21C)c1ccccc1,-4.3%
COc1cccc(OCC(=O)c2ccc3c(c2)N(C(C)C(=O)NCCc2ccccc2)C(=O)CO3)c1 (stereo unspecified),-14.5%

# Two of the compounds above, as labelled records.
Molecule: CC1(C)[C@H]2CC[C@@H](CNC(=O)N3CCCC3)[C@@H]1C2
  hNpr1 antagonist: -6.6%[70.6 µM]

Molecule: COc1ccc(C(=O)NC2CCN(c3cnn(CC4CC4)c(=O)c3)CC2)cc1OC
  hNpr1 antagonist: -15.9%

# Next part.
SMILES,hNpr1 antagonist
COCCNC(=O)[C@H]1C[C@H](Oc2ccccc2)CN1C(=O)Nc1ccccc1,0.4%
Cc1cc(C(=O)N2CCC(Oc3ccccc3)C2)n(C)n1 (stereo unspecified),-0.4%
COc1ccc(CCC(=O)NCCC2CCN(C(=O)Nc3cc(F)cc(F)c3)CC2)cc1,0.4%
NC(=O)Cc1c[nH]c2ncc(-c3cccc(OC(F)(F)F)c3)cc12,-11.5%[70.6 µM]
Cc1cccc(OC[C@H]2C[C@@H](N(C)C)[C@H](O)[C@@H]2O)n1,-1.3%[70.6 µM]
O=C(CCC(F)(F)F)N1CCC(Oc2cnc3c(ccn3-c3cncnc3)c2)CC1,1.2%[70.6 µM]
CO[C@H]1C(=O)N(C2CCN(C(=O)c3cnn(C)c3)CC2)[C@H]1c1ccncc1,-3.5%
COc1ccc(-c2noc(-c3ccc(N4C[C@H]5CC[C@H]4C5)nc3)n2)cc1,?
CC1(C)[C@H](Cc2cc(CN3CCOCC3)on2)C[C@@H]1NC(=O)Nc1ccc(F)cc1,-14.2%[70.6 µM]
CCc1noc(CN2CCC3(CC2)CC(=O)N(CCCc2ccccc2)C3)n1,-12.4%
O=[S+]([O-])(Nc1ccccc1)c1ccc2c(c1)OCCN(Cc1ccncc1)C2,?
C=CCOc1cccc(-c2nnc(CCC(=O)NC(C)c3ccccc3)c(=O)[nH]2)c1 (stereo unspecified),-10.8%
Cc1nnc([C@H]2CCN(Cc3ccc(F)cc3)C2)o1,2.6%[70.6 µM]
CCN(CC)C(=O)CC[C@@H]1CNC(=O)[C@@H]2C[C@H](NC(=O)Nc3ccsc3)CN12,1.3%[70.6 µM]
COCCCNC(=O)N1CCCN(C(=O)C2CC2)C(c2ccccc2)CC(=O)NCC1 (stereo unspecified),-3.8%
CC(C)n1cc2cc(C(=O)NCc3ccccc3F)sc2c1,-18.7%
O=C(NCc1cc(F)cc(F)c1)c1ccc(Cn2ccn3nc4c(c3c2=O)CCCC4)cc1,-23.5%
Cc1ccc(-c2[nH]ncc2CN2CCN(c3ccc(Cl)cn3)CC2)cc1C,11.8%
CCCCS(=O)(=O)N1CCC(CC(=O)NCc2ccccc2)C1 (stereo unspecified),2.4%
C=CCNC(=O)C(NC(=O)c1ccc(OC)cc1)C1CCN(C(=O)c2ccccc2C)CC1 (stereo unspecified),-5.4%
CCCNC1(Cc2cc(-c3ccccn3)on2)COC1,-0.3%[70.6 µM]
C[C@H]1[C@@H]2[C@@H](O)C([C@H](C)C(=O)NCc3cc(F)cc(F)c3)CC[C@@]2(C)CC[C@@H]1NC(=O)c1cncnc1 (stereo partly specified),-14.9%
O=C(CC1CCCN(c2cn[nH]c(=O)c2)C1)NCCCc1ccccc1 (stereo unspecified),3.2%
O=C1CCN(S(=O)(=O)c2ccccc2)CCCC(C(=O)N2CCCCC2)CCN1 (stereo unspecified),2.8%
NC(=O)c1cccc(-c2ccc3c(n2)CN(Cc2ccc(F)cc2)C(=O)CO3)c1,?
# Other records
SMILES,hNpr1 antagonist
Cc1noc(C)c1-c1nccc2c(=O)cc(-c3ccccn3)oc12,7.4%[70.6 µM]
COCc1cc(CNC(=O)Cn2ncc3ccccc3c2=O)[nH]n1,3.4%
Cc1ccc(-c2cc3c(=O)n(CCNC(=O)c4ccc5c(c4)OCO5)ccn3n2)cc1C,-17.6%
CN1Cc2ncnc(N3CCCCC3)c2CN(c2ccccc2)C1=O,0.5%[70.6 µM]
NC(=O)[C@@H]1C[C@H](Oc2cccnc2)CN1C(=O)c1cccs1,1.8%
COc1ccc(-c2cc(N3CCCC(NC(=O)c4ccc(OC)c(OC)c4)C3)n[nH]2)cc1 (stereo unspecified),-15.5%
COCCN(C)C[C@@H]1CN(C(=O)c2ccc(-c3ccc(C)o3)cc2)C[C@@H]1CO,-1.5%
CS(=O)(=O)N1CC[C@H]2C(=O)NCCCCCCN(Cc3ccncc3)[C@@H]2C1,0.9%
O=C1NCCCCCCN(C(=O)c2ccco2)[C@H]2C[C@H](c3nc(Cc4ccccc4)no3)C[C@@H]12,0.6%
COCCO[C@H]1C(=O)N(C2CCN(S(=O)(=O)C(C)C)CC2)[C@H]1c1ccncc1,5.8%
COc1cccc(Nc2cnc3ccc(-c4ccccc4OC)nn23)c1,-2.6%[70.6 µM]
Cc1ccc(OCCC2CCN(C(=O)C(C)C)C2)cc1 (stereo unspecified),?
NC(=O)c1ccccc1OC[C@@H]1CCCN2CCCC[C@H]12,5.8%
